From PubChem BioAssay
gsp ag = agonists of gsp mutant (McCune-Albright syndrome); gsp mutant cells, cAMP HTRF, 30 min; control for the full effect not named in the record; Potency, µM (titrated, usually from 76.9 µM), for inactives: at the highest dose activation (cAMP increase), hits mostly activators; actives 0.13% (n = 340,000); AID 624287; active = well fitted activation curve with a large enough effect; inconclusive = small, poorly fitted or top-dose-only effect, or another doubt; inactive = no such curve, though single readings can be large or run the other way; cell line not stated here;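 note: phosphodiesterase inhibitor Ro 20-1724 added with compounds to block cAMP breakdown; potency is the fitted concentration of half-maximal effect; nearly all actives have a fitted effect of over 60% in size; about a fifth of the inactives were tested at one dose only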
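Cells stably selected in G418 were plated at 2000/well, grown 16-24 hr, then given compounds in DMSO with the PDE inhibitor […] (300 uM solution added) for 30 min at 37C; cAMP was read by HTRF.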
gsp antagonist = antagonizes gsp, the McCune-Albright syndrome mutation | gsp-mutant cells, cAMP HTRF, 30 min; control for the full effect not named in the record | Potency, µM (titrated, usually from 76.9 µM), for the others: top-dose activity change, negative = inhibition, usual class: inhibitors | actives 0.4% (n = 340,000) | AID 624288; active = falling curve of any shape with a large fitted effect; inconclusive = falling curve, mostly with a smaller effect; inactive = flat or rising curve; cell line not stated here;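 note: intracellular cAMP measured with PDE inhibitor Ro 20-1724 present during compound exposure; potency is the fitted concentration of half-maximal effect; % is set by controls: 0 for no effect and ±100 for the full control effect; nearly all actives have a fitted effect of over 65% in size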
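Measurement of cellular cAMP by homogeneous time-resolved fluorescence following a 30 min compound exposure at 37C. The PDE inhibitor […] was present throughout; the assay buffer was DPBS with 0.05% BSA and 0.005% Tween 20.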
D2 PAM = human D2 receptor positive allosteric modulation. DiscoveRx D2 beta-arrestin cells, luminescence, 90 min; 100% = 57 uM dopamine signal. potentiation, % (concentration not given with the values). actives 0.23% (n = 360,000). AID 624464; active = potentiation of 50% or more; inconclusive = 30% to 50%; inactive = 30% or less;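 note: compound concentration not given in the record; tested on top of an EC20 dose of dopamine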
Target sequence (P14416 whole entry, looked up): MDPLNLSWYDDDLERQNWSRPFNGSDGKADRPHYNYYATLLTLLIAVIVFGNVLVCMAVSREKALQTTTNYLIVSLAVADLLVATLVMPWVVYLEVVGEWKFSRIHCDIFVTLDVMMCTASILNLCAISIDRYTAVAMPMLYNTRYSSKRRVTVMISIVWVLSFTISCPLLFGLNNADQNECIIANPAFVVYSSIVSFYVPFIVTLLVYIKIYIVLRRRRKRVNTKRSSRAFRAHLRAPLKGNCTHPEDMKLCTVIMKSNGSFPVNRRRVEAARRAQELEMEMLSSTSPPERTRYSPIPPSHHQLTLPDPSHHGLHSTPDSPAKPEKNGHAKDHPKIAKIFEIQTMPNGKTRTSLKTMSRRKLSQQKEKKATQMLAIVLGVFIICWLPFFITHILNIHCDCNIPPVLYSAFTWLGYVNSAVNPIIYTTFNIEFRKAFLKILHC
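D2 cells co-treated with compound plus 50 nM dopamine (EC20) for 90 min at 37 deg C to detect potentiation. Beta-arrestin recruitment was read as enzyme-fragment luminescence after 1 h at ambient temperature. Full response was set by 57 uM dopamine.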
D2 agonist = human D2 receptor agonism in beta-arrestin assay; P14416; actives 0.084% (n = 360,000); DiscoveRx PathHunter D2 beta-arrestin, luminescence, 90 min; 100% = 57 uM dopamine signal; activation, % (no concentration beside the values); in the data active = activation above about 40%; inconclusive = about 15% to 40%; inactive = below about 15%; note: compound concentration not given in the record; the text of the record calls up to 30% inactive
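DiscoveRx PathHunter D2 beta-arrestin cells (2,100/well) attached overnight, then compound-stimulated 90 min at 37 C in HBSS/10 mM HEPES/0.1% Tween-20 buffer; beta-galactosidase complementation read by luminescence after 1 h at ambient temperature. Dopamine 57 uM final (EC100) as control.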
CtBP-E1A inh = inhibitors of CtBP/E1A interaction; AlphaScreen GST-E1A/His-CtBP binding, 1536-well; hits give low values; control for the full effect not named in the record; activity change, % (no concentration beside the values); actives 0.49% (n = 340,000); in the data active means activity change below about -65%; inconclusive means about -30% to -65%; inactive means above about -30%; note: % is set by controls: 0 for no effect and ±100 for the full control effect; compound concentration not given in the record
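GST-E1A and His-tagged CtBP (125 nM each as 5X stock) were preincubated with pin-transferred compound for 2 h at 37 °C in the dark, then glutathione donor and nickel acceptor beads were added for 1 h before AlphaScreen reading.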
Six1-Eya2 inh = blocks human Six1 binding to Eya2. AlphaScreen GST-Six1/His-Eya2 binding, biochemical; hits give low values; control for the full effect not named in the record. actives 0.56% (n = 360,000). activity change, % (no concentration beside the values); in the data active = activity change below about -65%; inconclusive = about -30% to -65%; inactive = above about -30%; note: % is set by controls: 0 for no effect and ±100 for the full control effect; compound concentration not given in the record
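AlphaScreen luminescence read after one hour at 37 °C in darkness. Pin-transferred compounds met GST-Six1 and His-Eya2 protein (5X stock 250 nM/500 nM) plus glutathione donor and Ni-chelate acceptor beads (5X, 50 ug/mL).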
* marks the source's active call; other numbers are inactive results; u = inconclusive; x = not tested or not shown; & = joins results of further samples; [ ] = remark or other dose.

SMILES	gsp ag	gsp antagonist	D2 PAM	D2 agonist	CtBP-E1A inh	Six1-Eya2 inh
O=C(COC(=O)Cc1c(F)cccc1Cl)NCCC1=CCCCC1	4%	-2%	-8	2.0	9	3
CC(C)NC(=O)NC(=O)COC(=O)C1CCCN1C(=O)c1cccs1 (centres undefined)	u	6%	-22	-1.7	-3	5
O=C(NCc1ccc(F)cc1)c1cc(-c2cccs2)on1	-4%	12%	-18	-4.7	20	8
N/C(Cc1ccc([N+](=O)[O-])cc1)=N\OC(=O)c1ccc(Br)o1	-2%	1%	132*	u	-21	-4
CC(=O)c1[nH]c(C)c(C(C)=O)c1C	u	10%	-3	-2.7	-4	2
O=C(Nc1ccccc1O)N1c2ccccc2Sc2ccccc21	10%	-12%	2	0.9	-23	-3
COc1cc(NC(=O)CN2C(=O)C(c3ccccc3)=NC23CCCCCC3)cc(OC)c1	20%	6%	-11	-0.9	-7	-4
COCCNC(=S)NCCCNc1nc2cc3c(cc2cc1C#N)OCO3	8%	-14%	-3	0.1	-6	-4
COc1cc(C)ccc1S(=O)(=O)n1nc(C)cc1C	-4%[15.4 µM]	x	-37	-4.4	-17	15
c1ccc(-c2sc3ccccc3c2-c2ccc(OCCN3CCOCC3)cc2)cc1	-40%[inhibitor]	-3%	-10	10	x	-10
Cc1ccc(NC(=O)CSc2nccn(-c3ccc4c(c3)OCCO4)c2=O)cc1	u	5%	-10	-6.3	7	3
COc1ccc(F)cc1-c1cc(C(=O)NCc2cc(C(F)(F)F)cc(C(F)(F)F)c2)[nH]n1	x	x	2	4.4	-2	0
CN(C)c1nc(OCCNC(=O)COc2ccc(Cl)cc2Cl)nc(N(C)C)n1	-18%	3%	5	0.5	8	2
NC(=O)NC(=O)COC(=O)CCSc1ccccc1	u	4%	-5	1.9	0	9
O=C(N/N=C/C=C\c1cccc([N+](=O)[O-])c1)c1cccnc1	-1%[15.4 µM]	-3%	-2	-1.6	-2	-12
COc1ccccc1-c1nnc(SCC(=O)Nc2c(Cl)cccc2Cl)o1	0%	18%	1	-1.6	-3	-3
O=[N+]([O-])c1ccc(Nc2nc(Cl)nc(NCCO)n2)cc1	3%[15.4 µM]	-6%	0	-2.4	-25	-6
COc1cc(SC)ccc1C(=O)OCC(=O)N1CCN(C(C)=O)CC1	6%	12%	u	-6.1	4	-14
Cc1cccc(NC(=O)CSc2nc(=O)n3ccccc3n2)c1C	40%[15.4 µM]	10%	0	-5.5	-4	0
Cc1c(NS(=O)(=O)c2cc(C(=O)NCCN(C)C)ccc2Cl)c(=O)n(-c2ccccc2)n1C	u	8%	-13	-0.2	-9	-2
CCOc1ccc(S(=O)(=O)NCCC(=O)NNC(=O)c2ccc(F)cc2)cc1	6%	x	-9	-2.7	-19	11
Cc1ccc(CNC(=O)Nc2ccc(Cl)cc2)cc1	u	0%	-5	-0.6	6	0
O=C(NCc1ccccn1)C(=O)N/N=C/c1ccc2c(c1)OCO2	u	0%	-5	-2.4	12	-9
O=C(NC1CCSc2ccccc21)c1cc(S(=O)(=O)N2CCOCC2)ccc1F (centres undefined)	3%	6%	10	-0.5	-4	-6
CC1CC(C)CN(C(=O)CSc2nnc(-c3ccc(Cl)cc3)o2)C1 (centres undefined)	-43%[inhibitor]	-7%	-5	-1.4	-1	-4
N=c1c2c(ncn1Cc1ccco1)Oc1cc(O)ccc1C2c1ccccc1 (centres undefined)	-26%	-13%	-1	5.9	3	1
C=CCn1c(SCC(=O)Nc2cc(C)on2)nc2c([nH]c3ccccc32)c1=O	0%[15.4 µM]	17%	-3	-5.6	6	0
CCOc1ccc(C(C)=O)cc1COC(=O)c1cnc(Cl)c(Cl)c1	-5%[15.4 µM]	-16%	2	2.2	6	4
O=C(O)CCCC(=O)NCCc1cccc(Cl)c1	-24%	10%	-7	0.2	2	3
O=C1C2C3C=CC(C3)C2C(=O)N1c1ncn[nH]1 (centres undefined)	-27%	10%	-6	-4.2	7	-9
COCCn1nnnc1C(C(C)C)N(Cc1cccnc1)Cc1ccccc1Cl (centres undefined)	26%	-2%	-10	-2.4	3	-8
COc1ccc(C(=O)C[n+]2cccc(C(N)=O)c2)cc1	-2%	4%	-9	-2.1	x	16
Cc1n[nH]c(=O)c2c(NC(=O)CSc3nncn3C(C)C)oc(C)c12	26%	13%	-3	-2.6	2	2
Cc1cc(C(=O)N/N=C/c2cccc([N+](=O)[O-])c2)c2ccccc2n1	-5%[15.4 µM]	5%	-21	-2.3	-6	-9
Cc1ccc(S(=O)(=O)N2CCN(S(C)(=O)=O)C2c2ccccc2)cc1 (centres undefined)	16%	6%	-17	-0.8	6	5
CCOc1ccc(C(=O)NNC(=O)CCNC(=O)c2ccc(Br)cc2)cc1OC	-61%[inhibitor]	4%	-2	-2.3	0	-3
C=CCN(C1CCCCC1)S(=O)(=O)c1ccc2c(c1)oc(=O)n2C	u	0%	-2	-2.5	-8	7
CC(C)C(=O)NC(c1cccc([N+](=O)[O-])c1)c1c(O)ccc2ccccc12 (centres undefined)	13%[15.4 µM]	-8%	-12	-14	18	3
CCc1ccc(C(=O)COC(=O)c2ccco2)cc1	u	6%	2	2.7	7	-1
O=C1NC(c2ccccc2OC(F)F)Oc2ccccc21 (centres undefined)	3%[15.4 µM]	x	0	2.7	2	7
COc1ccc(O)c(C(=O)c2cnn(C(=O)c3cccc(S(=O)(=O)N(C)C)c3)c2)c1	8%	5%	17	1.8	1	0
O=C(O)c1cc(-c2ccc3c(c2)OCO3)nc2ccc(Br)cc12	10µM*	26%	-4	-5.7	-14	-2
COc1ccccc1CN1CC(C(=O)N(C)Cc2ccc(C)o2)CCC1=O (centres undefined)	17%	0%	-4	6.1	3	0
Cc1ccc(C(=O)c2ccccc2C(=O)O)cc1C	-3%[15.4 µM]	6%	-3	-0.9	14	-8
CC1(C)C(=O)Nc2ccccc2N1C(=O)COC(=O)COc1ccc(C#N)cc1	15%	-26%	-5	-3.9	-1	-2
Cc1cc(=O)oc2c3c(cc(OCC(=O)N[C@H](C(=O)O)c4ccccc4)c12)OC(C)(C)CC3	x	-5%	-13	-3.8	-15	-22
COc1ccccc1-c1cc(C(F)(F)F)c(C#N)c(=O)[nH]1	0%	-17%	12	3.6	2	11
COC(=O)c1sccc1N/N=C/c1cccc(Oc2ccccc2)c1	1%[15.4 µM]	10%	-3	-18	28	34
COc1ccc(CC2(CO)CCN(Cc3cccn3-c3ccccn3)CC2)cc1	-18%[15.4 µM]	5%	-4	-2.0	-12	-12
COc1ccccc1N(CC(=O)NCc1ccccc1)S(=O)(=O)c1cccs1	-11%	x	-4	-0.1	-2	-8
C#CCOCCOCCOCCNc1nc(N2CCN(C(=O)C(Cc3cc4ccccc4[nH]3)n3cc(C(N)Cc4ccc(O)cc4)nn3)CC2)nc(N2CCN(C(=O)C(CCC(=O)O)n3cc(C(N)C(C)CC)nn3)CC2)n1 (centres undefined)	x	9%	-15	-3.2	-24	-20
O=C(OCCCCOC(=O)c1ccccc1)c1ccccc1	u	4%	-5	-3.0	70	142
Cn1c(=O)c2c(ncn2CC(=O)OCCCC(=O)c2ccc(Br)cc2)n(C)c1=O	18%	-9%	-5	2.6	2	4
Cc1cccc(C(=O)NCC(c2ccc(F)cc2)N2CCOCC2)c1 (centres undefined)	8%[15.4 µM]	5%	1	2.4	7	2
O=C(CCCn1c(=S)[nH]c2cc3c(cc2c1=O)OCO3)NCc1ccco1	4%[15.4 µM]	10%	-5	-0.9	2	1
O=C(N/N=C\c1ccccc1OCc1ccccc1)c1ccco1	-13%	-8%	-3	-1.1	u	u
CN1CCN(C(=O)c2cc3c(c(-c4cccc(C#CC(C)(C)O)c4)n2)[C@@H](CCO)N(S(=O)C(C)(C)C)C3)CC1 (some centres undefined)	x	x	3	-2.1	1	3
COc1ccc(C)cc1Nc1cc(C)nc2ncnn12	5%	8%	-8	-2.9	0	14
COc1ccc(-c2nc(SCC(=O)NC3CCCC3)c(-c3ccc(OC)cc3)[nH]2)cc1	27%	-16%	-3	3.3	-4	-13
CCOC(=O)N1CCN(C(=O)COC(=O)c2cc(Cl)c(O)c(Cl)c2)CC1	-13%[15.4 µM]	u	19	4.5	2	-3

Some of the entries above in a different format.
mol | gsp ag | gsp antagonist | D2 PAM | D2 agonist | CtBP-E1A inh | Six1-Eya2 inh
O=C(N/N=C\c1ccccc1OCc1ccccc1)c1ccco1 | -13% | -8% | -3 | -1.1 | u | u
CN1CCN(C(=O)c2cc3c(c(-c4cccc(C#CC(C)(C)O)c4)n2)[C@@H](CCO)N(S(=O)C(C)(C)C)C3)CC1 (some centres undefined) | x | x | 3 | -2.1 | 1 | 3
COc1ccc(C)cc1Nc1cc(C)nc2ncnn12 | 5% | 8% | -8 | -2.9 | 0 | 14

Other structures follow:
SMILES	gsp ag	gsp antagonist	D2 PAM	D2 agonist	CtBP-E1A inh	Six1-Eya2 inh
COc1ccc(CNC(=O)N2CCc3ccccc3C2)cc1Cl	-35%[inhibitor]	1%	3	-2.3	-16	-7
CC(=O)Nc1c(C(=O)c2ccc(F)cc2)oc2ccccc12	-42%[inhibitor]	0%	-8	-1.2	7	12
CNC(=O)CCCCCNS(=O)(=O)c1ccc(C)cc1	1%	-8%	-10	-3.7	4	1
CC1CN(Cc2ccccc2Cl)CC(C)O1 (centres undefined)	-21%	0%	-19	-1.5	17	5
C/C(N)=C(/C#N)C(=O)CSc1nnc(COc2ccccc2Cl)o1	-7%&2%	-11%&15%	-10&14	-3.6&0.9	12&5	0&0
COc1cccc2cc(NC(=O)C3CCCCC3)c(=O)oc12	u	7%	1	-3.6	7	3
c1ccc(NNC2=NCCCCC2)cc1	29%	4%	-32	-2.6	x	-2
C=C(C)CNC(=S)NN=C1c2ccccc2-c2ccccc21	12%[15.4 µM]	u	-16	-3.0	5	-27
NC(=O)C(c1ccc(Cl)cc1)c1ccc(Sc2ccc(Cl)cc2)nn1 (centres undefined)	5%	-5%	0	1.5	-7	-3
COc1ccc(C2CCCN2C(=S)Nc2c(C)cccc2C)cc1OC (centres undefined)	5%	-3%	6	-0.9	7	-5
C/C(=N\N1CCN(C2c3ccccc3-c3ccccc32)CC1)c1ccncc1	-24%	-1%	-6	-0.9	-9	4
COc1ccc(C(=O)COC(=O)C(C(C)C)N2C(=O)C3C4C=CC(C4)C3C2=O)cc1 (centres undefined)	9%	-13%	-20	-1.6	-1	-2
COc1ccc(C(=O)O/N=C(\N)c2ccccc2Cl)cc1OC	u	9%	u	u	3	-7
COc1ccc(C(=O)Nc2scc(-c3ccc(Cl)cc3Cl)c2C(N)=O)cc1	-22%	8%	3	0.5	-3	-2
Cc1nnsc1C(=O)NNc1ccc(Cl)cc1	-40%[inhibitor]	-1%	6	4.9	x	4
O=C(Nc1nnc(SCc2ccc(F)cc2)s1)C1CC(=O)N(c2ccc3c(c2)OCCO3)C1 (centres undefined)	12%	-16%	-2	-1.6	-2	-7
